Kir21 inh = blocks the mouse Kir2.1 inward-rectifier potassium channel; HEK293-Kir2.1, FluxOR thallium flux fluorescence; stronger effect = lower value; 310,000 compounds, 0.85% hits; B-score at 10 µM;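 active = fluorescence ratio B-score at or below minus 3 SD of library scores, with starting-brightness B-score within 2 SD, cut at about -4.2 in these data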;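 note: channel flux triggered by added potassium and thallium sulfate stimulus; B-score of peak minus minimum fluorescence over baseline after thallium stimulus; more negative B-score means stronger Kir2.1 block with less thallium influx; some compounds called inactive have numbers as strong as hits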
Target sequence (P35561 whole entry, looked up): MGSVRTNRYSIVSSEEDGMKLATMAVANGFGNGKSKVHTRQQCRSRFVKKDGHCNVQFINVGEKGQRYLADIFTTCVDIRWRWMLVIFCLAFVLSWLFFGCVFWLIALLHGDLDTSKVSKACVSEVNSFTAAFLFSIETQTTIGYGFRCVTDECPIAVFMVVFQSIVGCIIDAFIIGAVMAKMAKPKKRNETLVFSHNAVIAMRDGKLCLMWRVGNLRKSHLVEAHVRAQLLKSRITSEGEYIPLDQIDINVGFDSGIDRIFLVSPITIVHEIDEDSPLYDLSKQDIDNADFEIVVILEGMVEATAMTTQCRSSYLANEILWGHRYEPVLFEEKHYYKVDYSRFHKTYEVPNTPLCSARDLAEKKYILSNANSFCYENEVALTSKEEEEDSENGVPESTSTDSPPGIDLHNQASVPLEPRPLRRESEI
Active calls of the source: *. Not all compounds are listed, and most or all hits are left out here.

SMILES	Kir21 inh
O=C(NS(=O)(=O)Oc1ccc(Cl)cc1)OC[C@@H]1CCCN2CCCC[C@H]12	-0.64
COc1ccc(C)cc1NC(=S)N1CCN(c2ccccn2)CC1	-0.61
CN(C)S(=O)(=O)c1cc(NC(=O)CN2CCN(c3ccccc3)CC2)ccc1Cl	1.2
COc1ccc(C)cc1NC(=O)CSc1nnc(CC(=O)Nc2ccccc2C)n1C	2.2
COc1ccc(CCNC(=O)CCSCc2ccccc2F)cc1OC	-0.54
CCOC(=O)/C=C(\C)Nc1cc(C)nn1-c1ccccc1	1.3
Cc1cc(C=C2C(=O)c3ccccc3C2=O)c(C)n1-c1ccccc1	-0.83
CC(C)(C)C(=O)N(Cc1nc2ccccc2c(=O)[nH]1)Cc1cccs1	0.06
CC1=C(C(=O)OC(C)C)C(C)NC(=O)N1 (stereo unspecified)	-0.04
CCCNc1c(NS(=O)(=O)c2cccs2)c(=O)oc2ccccc12	-0.58
CCCNC(=O)Cc1c(C)n(C(=O)c2ccc(Cl)cc2)c2ccc(OC)cc12	0.49
CCc1c(C)nc(N)nc1Cl	0.31
Cc1cc(Cl)ccc1OCC(=O)Nc1nc(-c2cccs2)cs1	1.6
N#Cc1ccc(NC(=O)CNc2cc(S(=O)(=O)N3CCOCC3)ccc2NCC2CCCO2)cc1 (stereo unspecified)	0.49
Cc1ccccc1OCC(=O)N/N=C1\CC(=O)CC(C)(C)C1	1.6
Clc1ccccc1Cc1noc(CN2CCSCC2)n1	0.26
O=[N+]([O-])c1ccccc1OCCCCN1CCCCC1	-0.99
OCC1(Cc2ccccc2)CCN(Cc2cnc(-c3cccc4ccccc34)nc2)CC1	-0.01
Cc1ccc(NNC(=O)C(=O)N2CCCCC2)cc1	-0.11
COc1ccc(CNC(=S)NC2CCCCC2)cc1	0.01

3 consecutive records already listed, for reference:
SMILES	Kir21 inh
CCOC(=O)/C=C(\C)Nc1cc(C)nn1-c1ccccc1	1.3
Cc1cc(C=C2C(=O)c3ccccc3C2=O)c(C)n1-c1ccccc1	-0.83
CC(C)(C)C(=O)N(Cc1nc2ccccc2c(=O)[nH]1)Cc1cccs1	0.06

A different layout for some results above.
| Molecule | Kir21 inh |
| --- | --- |
| CC1=C(C(=O)OC(C)C)C(C)NC(=O)N1 (stereo unspecified) | -0.04 |
| COc1ccc(CNC(=S)NC2CCCCC2)cc1 | 0.01 |
| COc1ccc(C)cc1NC(=O)CSc1nnc(CC(=O)Nc2ccccc2C)n1C | 2.2 |
| Cc1ccccc1OCC(=O)N/N=C1\CC(=O)CC(C)(C)C1 | 1.6 |
| CCCNc1c(NS(=O)(=O)c2cccs2)c(=O)oc2ccccc12 | -0.58 |

Later entries:
SMILES	Kir21 inh
Cc1cc2c(cc1S(=O)(=O)NCC(C)c1ccccc1)n(C)c(=O)c(=O)n2C (stereo unspecified)	-1.4
O=C(CN(C(=O)c1ccc(Cl)cc1)N1C(=O)C2CCCCC2C1=O)c1ccc(Cl)cc1 (stereo unspecified)	0.48
Cc1cc(C(=O)NCc2ccco2)c2ccccc2n1	-0.65
Cc1ccc(C(=O)Nc2c(N)nc(SCC(=O)Nc3cc(C)on3)[nH]c2=O)cc1	0.52
Cc1ccccc1NC(=O)COC(=O)Cc1ccsc1	-1.3
O=C1CCN(C(=O)c2ccc(Cl)cc2)N1	0.03
CCCOc1ccc(N2C(=O)CC(NCC#N)C2=O)cc1 (stereo unspecified)	1.6
COc1ccc(C2=C(N)c3ccccc3C2=O)cc1	0.46
CCC(CC)c1nnc(NC(=O)c2nn(C)c(=O)c3ccccc23)s1	-1.5
CCOc1ccc(NC(=S)NNC(=O)c2cc(Br)ccc2Cl)cc1	0.09

Single values from the entries so far:
In Kir21 inh, Cc1cc2c(cc1S(=O)(=O)NCC(C)c1ccccc1)n(C)c(=O)c(=O)n2C (stereo unspecified) is listed with -1.4
In Kir21 inh, COc1ccc(C2=C(N)c3ccccc3C2=O)cc1 is listed with 0.46
In Kir21 inh, CCC(CC)c1nnc(NC(=O)c2nn(C)c(=O)c3ccccc23)s1 is listed with -1.5
In Kir21 inh, O=C(CN(C(=O)c1ccc(Cl)cc1)N1C(=O)C2CCCCC2C1=O)c1ccc(Cl)cc1 (stereo unspecified) is listed with 0.48
In Kir21 inh, CCOc1ccc(NC(=S)NNC(=O)c2cc(Br)ccc2Cl)cc1 is listed with 0.09
In Kir21 inh, CCCOc1ccc(N2C(=O)CC(NCC#N)C2=O)cc1 (stereo unspecified) is listed with 1.6

Given with the structure last: entries from further up.
Kir21 inh,Molecule
0.48,O=C(CN(C(=O)c1ccc(Cl)cc1)N1C(=O)C2CCCCC2C1=O)c1ccc(Cl)cc1 (stereo unspecified)
-0.65,Cc1cc(C(=O)NCc2ccco2)c2ccccc2n1
0.52,Cc1ccc(C(=O)Nc2c(N)nc(SCC(=O)Nc3cc(C)on3)[nH]c2=O)cc1
-1.3,Cc1ccccc1NC(=O)COC(=O)Cc1ccsc1

Additional structures
SMILES	Kir21 inh
Cc1ccc(N2C(=O)CC(N3CCN(c4ccc(F)cc4)CC3)C2=O)c(C)c1 (stereo unspecified)	0.03
CCCn1c(SCC(=O)NC(C)C23CC4CC(CC(C4)C2)C3)n[nH]c1=O (stereo unspecified)	0.02
CS(=O)(=O)N1CCc2cc(-c3csc(NCC4CCCO4)n3)ccc21 (stereo unspecified)	0.91
O=C(NC(=S)Nc1cccc([N+](=O)[O-])c1)c1ccccc1	-0.32
O=C(CNCCCO)Nc1cc(C(F)(F)F)cc(NC(=O)CNCCCO)c1Cl	-0.05
CCOc1cnc(-c2ccc(Cl)cc2)o1	0.05
Cc1cc(C(F)(F)F)nc(SCC(=O)Nc2cc(C)on2)n1	-0.03
